Screening data (PubChem BioAssay)
Rce1 inh = inhibitors of yeast Ras-converting enzyme; calls only; yeast membranes, quenched prenylated peptide cleavage fluorescence; Q03530; 290,000 tested, 0.27% active;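 active = fall in fluorescence gain of 50% or more versus controls, with final raw signal at or below 3038400; inconclusive = same 50% fall but final raw signal above 3038400; inactive = fall in fluorescence gain under 50%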;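 note: plate controls were neutral control wells for no effect and wells lacking membranes for full effect; tested at 10 µM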
Target sequence (Q03530 whole entry, looked up): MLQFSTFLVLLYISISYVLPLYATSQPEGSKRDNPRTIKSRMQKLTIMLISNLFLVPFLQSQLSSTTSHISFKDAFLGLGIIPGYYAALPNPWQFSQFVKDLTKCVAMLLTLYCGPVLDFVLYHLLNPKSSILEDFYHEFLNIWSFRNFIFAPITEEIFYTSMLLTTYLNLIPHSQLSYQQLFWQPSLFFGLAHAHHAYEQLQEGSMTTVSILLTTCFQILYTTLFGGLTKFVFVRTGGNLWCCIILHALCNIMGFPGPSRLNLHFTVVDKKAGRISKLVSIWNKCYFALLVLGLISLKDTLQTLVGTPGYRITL
PABP FP inh = PABP-poly(A) binding inhibition; P11940; PABP-poly(A) RNA binding, fluorescence polarization; 290,000 tested, 1% active; AID 2014; inhibition, % at 35 µM;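 active = 50% or more with normal probe brightness, or confirmed in later tests; inconclusive = above 50% with abnormal brightness, or retests that disagree; inactive = below 50% or failed in later tests; about a fifth of its hits are not listed in these tables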;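 note: calls also rest on retests at 20 µM and on dose response follow-up; controls were probe without protein and protein plus probe with vehicle; some compounds called inactive have numbers as strong as hits; many hits fall short of the cut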
Target sequence (P11940 whole entry, looked up): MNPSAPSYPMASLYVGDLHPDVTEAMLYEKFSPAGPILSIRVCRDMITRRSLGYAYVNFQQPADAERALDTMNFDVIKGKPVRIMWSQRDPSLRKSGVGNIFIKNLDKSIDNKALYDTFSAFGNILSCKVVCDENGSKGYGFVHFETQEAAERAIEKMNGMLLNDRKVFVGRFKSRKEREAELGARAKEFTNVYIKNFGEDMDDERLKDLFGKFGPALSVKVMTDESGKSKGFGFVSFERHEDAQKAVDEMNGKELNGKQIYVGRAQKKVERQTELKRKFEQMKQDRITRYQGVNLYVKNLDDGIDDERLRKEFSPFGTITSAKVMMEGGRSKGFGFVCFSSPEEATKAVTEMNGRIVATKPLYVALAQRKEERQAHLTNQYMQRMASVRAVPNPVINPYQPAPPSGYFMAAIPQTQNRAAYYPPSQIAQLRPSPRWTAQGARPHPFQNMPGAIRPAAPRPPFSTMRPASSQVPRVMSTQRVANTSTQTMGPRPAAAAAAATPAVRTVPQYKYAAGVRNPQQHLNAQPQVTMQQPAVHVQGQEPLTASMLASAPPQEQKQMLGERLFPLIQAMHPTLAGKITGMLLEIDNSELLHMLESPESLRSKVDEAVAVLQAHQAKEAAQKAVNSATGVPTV
eIF4H inh = inhibitors of RNA binding by human eIF4H; AID 2012; eIF4H fluorescence polarization binding assay; 290,000 tested, 0.94% active; inhibition, % at 35 µM;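 active = 50% or more with normal probe brightness, or confirmed in later tests; inconclusive = above 50% with abnormal brightness, or retests that disagree; inactive = below 50% or failed in later tests; about a fifth of its hits are not listed in these tables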;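 note: calls also rest on retests at 20 µM and on dose response follow-up; 0% = protein and probe with vehicle and 100% = probe without protein; strong numbers were not always called active; many hits fall short of the cut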
Yeast UUG start = yeast start codon fidelity modulation; S. cerevisiae UUG-firefly luciferase reporter, luminescence/redox ratio; activity score, % at 18.7 µM; 350,000 tested, 0.13% active; AID 602363;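 active = replicate mean at a twofold rise or more, about +100% in these data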;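 note: firefly luciferase made from a UUG start codon reports start codon fidelity; reporter light over untreated wells divided by growth signal over untreated wells; some hits fall short of that in this replicate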
MT1-MMP act inh = MT1-MMP (human) activation inhibition; P50281; HT1080 RFP-PRO-GFP cells, GFP/RFP ratio fluorescence, overnight; percent of plate control window, DMSO zero; GFP/RFP ratio change, % at 20 µM; 360,000 tested, 0.061% active; AID 651647;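 active = GFP/RFP ratio change of at least 30% with cell ATP level not reduced by more than half and red fluorescence within 50% of control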; note: strong numbers were not always called active
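Assay system: RFP-PRO-GFP reporter HT1080 cells; read-out basis: GFP/RFP fluorescence ratio; benchmarks: DMSO wells and RFP-L50D-GFP cells; doses: 20 µM single dose, 1% DMSO; schedule: overnight cell settling, then overnight compound exposure, 37 °C, 5% CO2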
Env fusion inh = HIV envelope-mediated fusion inhibition; 360,000 tested, 1.1% active; HeLa-JRFL Env/CEM21 cell fusion, luciferase; inhibition, % at 12.3 µM;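 active = mean replicate inhibition score of at least 50 and every replicate individually at or above 50; inconclusive = only one of the two criteria met; inactive = mean below 50 and not all replicates reaching 50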;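 note: 0% = plate neutral controls and 100% = maraviroc near 300 nM; one replicate is shown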
CSC inhib = cancer stem cell inhibition | cancer stem cell-like cells viability, luminescence | 300,000 tested, 1.1% active | inhibition, % at 7.5 µM;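 active = mean at 75% or more and at least half the replicates too; inconclusive = mean and replicates disagree; tested in HMLE shEcad cells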;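 note: 0% = median of negative and 100% = median of positive control wells; the first replicate is given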
MT1-MMP act inh RFP = further read-out of MT1-MMP act inh, marked with its call; RFP signal change, %; measured here: RFP expression control read;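 0 = vehicle wells; hits needed this value within 50% of zero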
Starred values were filed as active, the others as inactive; i = inactive; ? = inconclusive; nt = no result given. An excerpt; the hit share may differ from the screen's.

no.	SMILES	Rce1 inh	PABP FP inh	eIF4H inh	Yeast UUG start	MT1-MMP act inh	MT1-MMP act inh RFP	Env fusion inh	CSC inhib
1	CCn1c(O)c(N=NC(=O)c2ccc(CSc3nncn3C)cc2)c2ccccc21	i	4.0	5.6	-13.2	4.6	0.1	0.7	-21.0
2	O=C(CN1CCN(S(=O)(=O)c2ccc3ccccc3c2)CC1)N1CCc2ccccc2C1	i	0.7	2.8	1.2	1.9	-3.4	nt	-20.7
3	CCOc1nc(CC)nc(NC(=O)NS(=O)(=O)c2ccccc2Cl)n1	i	5.7	1.1	-16.7	4.2	6.5	nt	-14.2
4	Cc1noc(C)c1COC(=O)CCCOc1ccc(Cl)cc1Cl	i	5.4	-5.5	-18.0	1.6	-2.8	nt	-17.8
5	OCC1(CO)COC(CCc2ccccc2)=N1	i	14.5	-8.3	0.1	-2.5	-2.0	-5.4	-5.5
6	Cc1cccc(C2=NN(c3ccccc3)[C@H](CO)[C@H]2c2ccc(Cl)cc2)c1	nt	nt	nt	17.1	-0.9	-7.8	?	nt
7	CCN(Cc1ccccc1OC)CC1CCCN(CCc2cccc(OC)c2)C1 (stereo unspecified)	i	16.2	4.6	-27.2	-3.3	-2.2	4.5	19.6
8	CC(=O)OC(C(=O)NCS(=O)(=O)c1ccc(C)cc1)c1cccnc1 (stereo unspecified)	i	6.1	5.0	-15.0	-3.8	-4.7	nt	1.6
9	COc1ccc(N2CC(C(=O)N[C@@H](CC(C)C)C(=O)NC3CCCC3)CC2=O)cc1 (stereo partly specified)	i	-7.0	0.9	nt	-2.4	-2.5	1.8	10.7
10	CC(=O)Nc1ccc(S(=O)(=O)NCCC(=O)NC2CCCCCC2)cc1	nt	nt	nt	-21.4	3.6	6.4	-3.6	nt
11	CCOc1ccc(C(=O)NCC(=O)OCC(=O)N(C)CC(=O)Nc2ccccc2CC)cc1OCC	nt	nt	nt	-7.8	-2.5	1.9	5.2	nt
12	CCCCOc1ccc(C(=O)NCc2ccncc2)cc1	i	-1.6	3.9	nt	-1.0	-9.3	20.3	-1.5
13	CC(C)(C)NC(=O)C(c1ccncc1)N(CC1CCCO1)C(=O)Cn1nnc(-c2ccc(F)cc2)n1 (stereo unspecified)	i	-3.0	5.2	nt	-3.9	-3.0	4.6	-6.6
14	Cc1ccn2cc(CCNC(=O)CC(C)(C)C)nc2c1	i	-2.3	-2.7	-8.3	4.2	10.1	nt	11.8
15	Cc1ccc(OCCn2ccnc2)c(C)c1	i	-8.2	-1.9	-13.8	-4.6	-1.1	-40.5	2.3
16	CCCc1nc2oc3c(OC)ncnc3c2c2c1COC(C)(C)C2	i	-11.0	-0.6	-7.5	-10.2	0.6	nt	-3.8
17	CC1(C)Cc2nc3sc(C(N)=O)c(N)c3cc2CO1	i	2.0	8.2	-18.1	-1.6	-0.2	-5.2	13.0
18	COc1ccc(C2C(=O)N(C3CCCCC3)CC(=O)N2CCc2ccccc2)cc1OC (stereo unspecified)	i	0.8	-13.2	nt	-0.4	1.7	23.0	-8.9
19	COC(=O)c1c(NC(=O)COC(=O)CNC(=O)c2cccc(OC(F)F)c2)sc(C)c1C	nt	nt	nt	-15.4	6.7	9.5	14.6	nt
20	Cc1ccc(-n2nnnc2SCn2nnc3ccccc3c2=O)cc1	nt	0.3	0.9	-19.3	0.2	-11.2	nt	6.8
21	Cc1cc2cc(CNC(=O)c3cccc([N+](=O)[O-])c3)ccc2[nH]1	i	22.1	5.0	-10.9	8.0	22.4	nt	nt
22	CCn1c(CN2CCOCC2)nnc1SCC(=O)Nc1ccc(C(C)=O)cc1	i	8.2	-5.6	-11.8	-1.8	2.3	11.1	5.4
23	COCCn1nnnc1C(c1cccs1)N1CCN(c2ccccc2)CC1 (stereo unspecified)	i	3.2	-3.2	-11.1	4.6	-1.1	-19.3	50.0
24	CCN(CC)c1ccc(N2C(=O)/C(=C\c3cccnc3)SC2=S)cc1	i	-5.0	2.5	-21.0	20.2	11.2	8.4	10.7
25	Cc1ccccc1C(=O)c1c[nH]c(C(=O)NCCCn2ccnc2)c1	i	11.6	7.6	-6.3	0.4	2.6	nt	0.7
26	CCCCNC(=O)NNC(=O)COc1cccc(C)c1C	i	-1.8	7.9	nt	-3.2	-1.1	0.3	11.6
27	CC[C@@H](C(=O)n1nc(C)cc1C)[C@H](NS(=O)(=O)c1ccc(C)cc1)c1ccccc1	i	-7.9	-0.8	18.4	-11.6	-13.5	nt	10.2
28	O=C(O)C1CC(=O)N(c2ccc(Br)cc2)C1 (stereo unspecified)	i	9.4	-5.0	nt	-0.7	-3.0	25.3	1.8
29	COCCCn1c(SCc2nnc(-c3ccccc3)o2)nc2sc3c(c2c1=O)CCC3	i	3.4	-19.7	-12.2	-5.4	-2.8	13.5	49.5
30	Cc1ccc2c(c1)N(CC(=O)N1CCOCC1)C(=O)CO2	i	2.5	2.5	-15.3	1.3	0.6	20.0	-0.2
31	CN1CCC(NC(=O)C2(C)CCN2Cc2ccc3ccccc3c2)CC1 (stereo unspecified)	nt	nt	nt	-13.3	5.9	13.7	10.4	nt
32	Cc1ccc(OC(=O)CCC(=O)NC(C)c2ccccc2)cc1 (stereo unspecified)	i	-22.1	-10.7	-2.6	-12.3	0.7	-6.5	-20.9
33	CCOC(=O)CN(C(=O)CSc1nnc(CNc2ccc(F)cc2)o1)c1ccccc1	i	-6.8	3.9	-1.7	-1.4	-0.7	-41.4	15.1
34	COc1ccc(CCN2C(=O)CC(C(N)=O)SC2=Nc2ccccc2)cc1OC (stereo unspecified)	i	-7.8	-1.4	-12.5	-2.0	0.4	nt	-6.6
35	C#CCOCCOCCOCCNc1nc(N2CCN(C(=O)CCCCCCCCCCNC(=O)[C@H](CO)n3cc(CCCSC)nn3)CC2)nc(N2CCN(C(=O)CCCCCCCCCCNC(=O)[C@H](CCCN=C(N)N)n3cc(C[C@@H](C)CC)nn3)CC2)n1	nt	nt	nt	-4.6	12.5	7.0	nt	64.3
36	O=C(CSc1nc2ccc(Cl)cc2[nH]1)Nc1ccc2[nH]c(=O)[nH]c2c1	i	nt	nt	nt	-2.6	0.9	-393.2	-17.5
37	CC(C)C[C@H](NC(=O)c1nc[nH]c1C(=O)NC(c1ccccc1)c1ccccc1)C(=O)OC(C)(C)C	i	-15.9	21.1	-16.7	-41.5	-42.9	14.0	97.0*
38	O=C(NCCCC(NC(=O)OCc1ccccc1)C(=O)O)OCc1ccccc1 (stereo unspecified)	i	-6.4	9.7	-7.3	-5.6	-1.4	1.7	-12.0
39	COc1ccc([N+](=O)[O-])cc1/C=N/NC(=O)c1nonc1N	i	-3.9	7.8	-22.1	1.1	4.7	-12.7	14.6
40	Cc1cccc(NC(=O)N[C@@H](C)C(=O)O)c1	i	-3.7	3.0	-10.4	-0.5	5.6	nt	3.6
41	COC(=O)[C@H]1C[C@H](OC(=O)NCc2ccccc2)[C@@]2(O)CN(S(=O)(=O)c3ccc(C)cc3)CC2[C@H]1C(=O)OC (stereo partly specified)	nt	nt	nt	2.6	-1.8	-1.0	-115.5	nt
42	Cc1cc(NC(=O)CSc2ccc3nnc(-c4ccc(Cl)cc4)n3n2)no1	i	-0.8	1.0	-13.3	4.5	2.2	-55.3	3.9
43	O=C(Nc1ccccc1N1CCOCC1)c1cccc(S(=O)(=O)Nc2ccccc2F)c1	nt	nt	nt	6.3	-3.1	-1.8	4.9	9.0
44	CS(=O)(=O)N(CC(=O)N1CCN(Cc2ccc3c(c2)OCO3)CC1)C1CCCCC1	i	-7.8	8.7	nt	1.2	-0.4	8.4	-0.2
45	CC(C)(C)c1ccc(C(=O)NC(=S)N2CCOCC2)cc1	i	-6.3	-10.2	-31.4	4.0	7.2	nt	-4.6
46	CC(C)[C@H](NC(=O)Nc1cccc(Br)c1)C(=O)O	i	-3.2	-5.7	nt	-0.2	6.9	17.2	-4.3
47	COc1ccc(C(=O)NN2CCCCC2)cc1OC	i	2.5	15.9	-24.0	5.9	6.5	-3.3	nt
48	COc1ccc(N2CCN(C(=O)CCCn3c(=S)[nH]c4cc5c(cc4c3=O)OCO5)CC2)cc1	i	-0.7	-9.6	-14.7	4.4	-2.3	31.9	17.0
49	COc1cccc(NC(=O)C2C3C=CC4(O3)C2C(=O)N(CCCN2CCCCC2)C4C(=O)NC2CCCCC2)c1 (stereo unspecified)	i	8.1	14.4	-1.9	-1.8	-2.7	-2.7	-1.0
50	Cc1nn(-c2cccc(Cl)c2)c2nc(-c3ccco3)cc(C(=O)O)c12	i	98.1*	79.6*	-15.6	-6.3	4.3	-27.4	2.9

By substructure: the compounds so far containing two or more sulfur atoms.
no.	SMILES	Rce1 inh	PABP FP inh	eIF4H inh	Yeast UUG start	MT1-MMP act inh	MT1-MMP act inh RFP	Env fusion inh	CSC inhib
24	CCN(CC)c1ccc(N2C(=O)/C(=C\c3cccnc3)SC2=S)cc1	i	-5.0	2.5	-21.0	20.2	11.2	8.4	10.7
29	COCCCn1c(SCc2nnc(-c3ccccc3)o2)nc2sc3c(c2c1=O)CCC3	i	3.4	-19.7	-12.2	-5.4	-2.8	13.5	49.5

(cont.)
no.	SMILES	Rce1 inh	PABP FP inh	eIF4H inh	Yeast UUG start	MT1-MMP act inh	MT1-MMP act inh RFP	Env fusion inh	CSC inhib
51	COC(=O)c1ccccc1NC(=O)CN1CCc2ccccc2C1	i	-4.9	-4.7	-1.0	-4.1	-4.6	5.8	0.5
52	Cc1cccc(C(=O)N2CCCC(N3CCN(c4ccccc4)CC3)C2)n1 (stereo unspecified)	i	3.0	5.7	-6.0	0.9	2.8	2.2	-10.9
53	COc1cc(-c2nc(S(=O)(=O)c3ccc(Cl)cc3)c(N(C)C)o2)cc(OC)c1OC	i	3.5	6.7	3.5	-0.8	-2.3	nt	-8.2
54	Cc1ccc(S(=O)(=O)NC(=O)c2cc(C)n(CCCN3CCOCC3)c2C)cc1	i	6.5	-9.8	8.7	0.8	8.0	nt	-8.1
55	COc1cccc(/C=N/N(C)C2=NS(=O)(=O)c3ccccc32)c1O	i	17.7	-8.4	5.7	-0.4	2.3	-6.0	-4.8
56	Cc1ccc(C#N)c(SCc2ccccc2[N+](=O)[O-])n1	i	8.9	-6.7	nt	-2.0	4.7	-27.2	4.6
57	COc1ccc(C(=O)/C(=C/O)N=Nc2ccc(F)cc2)cc1	i	10.3	-0.8	11.9	nt	nt	3.0	53.0
58	Cc1nnc(SCC2=C(C(=O)O)N3C(=O)C(NC(=O)COc4ccccc4)C3SC2)s1 (stereo unspecified)	nt	nt	nt	-20.9	-10.2	2.6	-12.5	nt
59	CN(CCCC1CCCC1)C(=O)CC1C(=O)NCCN1Cc1ccc(F)cc1 (stereo unspecified)	i	3.0	10.5	-3.4	-2.0	-3.3	8.1	0.0
60	CC1(C)C(C=C(Cl)Cl)C1C(=O)Nc1ccc(S(=O)(=O)Nc2ncccn2)cc1 (stereo unspecified)	i	4.0	1.8	-0.4	2.0	-0.1	10.2	-0.3
61	CC1CN(C(=O)Nc2ccc3c(c2)OCCO3)CC(C)O1 (stereo unspecified)	i	-10.4	-2.3	nt	1.2	2.3	-4.9	16.0

Nothing new here: an excerpt of the list.
no.	SMILES	Rce1 inh	PABP FP inh	eIF4H inh	Yeast UUG start	MT1-MMP act inh	MT1-MMP act inh RFP	Env fusion inh	CSC inhib
1	CCn1c(O)c(N=NC(=O)c2ccc(CSc3nncn3C)cc2)c2ccccc21	i	4.0	5.6	-13.2	4.6	0.1	0.7	-21.0
2	O=C(CN1CCN(S(=O)(=O)c2ccc3ccccc3c2)CC1)N1CCc2ccccc2C1	i	0.7	2.8	1.2	1.9	-3.4	nt	-20.7
